Source: PubChem (Broad Institute)
AF4-AF9 inh – MLL-AF4/AF9 protein interaction inhibition; inhibition, % at 10 µM; P42568; 0.47% of 350,000 active; AlphaScreen, biotin-AF4 peptide binding to FLAG-AF9; AID 651704;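 active = every replicate reaching a set inhibition limit, whatever the replicate mean, cut at about 25% in these data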;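 also: 0% = plate neutral control median and 100% = total signal loss; the record names both 10 and 1 µM as test concentration; the first replicate is given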
Target sequence (P42568 whole entry, looked up): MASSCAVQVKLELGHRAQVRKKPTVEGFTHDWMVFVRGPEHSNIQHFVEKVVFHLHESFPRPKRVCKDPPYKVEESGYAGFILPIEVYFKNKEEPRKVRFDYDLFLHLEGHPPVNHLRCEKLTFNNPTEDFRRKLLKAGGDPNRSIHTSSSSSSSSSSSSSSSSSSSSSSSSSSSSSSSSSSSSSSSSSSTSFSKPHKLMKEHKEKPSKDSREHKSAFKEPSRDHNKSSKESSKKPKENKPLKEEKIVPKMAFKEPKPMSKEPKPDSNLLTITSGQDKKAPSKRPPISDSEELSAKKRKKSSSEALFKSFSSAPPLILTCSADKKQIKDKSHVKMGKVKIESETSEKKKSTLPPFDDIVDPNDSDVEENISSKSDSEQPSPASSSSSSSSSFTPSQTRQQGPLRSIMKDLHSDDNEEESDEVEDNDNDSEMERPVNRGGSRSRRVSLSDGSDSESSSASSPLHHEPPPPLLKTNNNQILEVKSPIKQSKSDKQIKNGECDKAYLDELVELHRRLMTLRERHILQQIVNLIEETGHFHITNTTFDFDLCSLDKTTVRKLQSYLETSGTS
Ecoli rRNA inh – selective bacterial rRNA inhibition in E. coli. E. coli WT GFP vs humanized-ribosome RFP mutants, fluorescence, 24 h; hits give low values; DMSO median 0, no signal -100. GFP signal change (wild-type ribosome), % (no concentration beside the values). 1.6% of 350,000 active. AID 720706;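 active = significant combined selectivity score with lowered wild-type GFP, culture density cut under 30%, mutant RFP and density less affected; inactive = any of these conditions unmet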; also: one replicate is shown; some compounds called inactive have numbers as strong as hits
Ecoli rRNA inh OD600 – second read-out of Ecoli rRNA inh, no call of its own (marks repeat the call); OD600 change, %; measured here: OD600 growth;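 optical density of the mix in the first replicate; 0 = DMSO median and -100 = no signal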
Ecoli rRNA inh RFP – recorded beside Ecoli rRNA inh, whose call it bears; RFP signal change, %; measured here: RFP humanized mutant strains;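 first replicate; 0 = DMSO median and -100 = no signal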
Numbers without * were called inactive; & = joins results of further samples. Not all compounds are listed, so the mix of outcomes need not match the whole.

AF4-AF9 inh	Ecoli rRNA inh OD600	Ecoli rRNA inh RFP	Ecoli rRNA inh	molecule
-1.5	-1.4	0.4	-0.3	COC(=O)C[C@H]1CC[C@H]2[C@@H](COc3ccc(NC(=O)NC(C)C)cc3C(=O)N2C)O1
1.9	2.9	-1.8	-0.5	COc1ccc(NC(=O)Nc2ccc3c(c2)C(=O)N([C@H](C)CO)C[C@@H](C)[C@@H](CN(C)C(=O)Nc2ccc(F)cc2)O3)cc1
-4.2	13.4	-1.4	2.3	CC(=O)N1[C@@H]2c3ccc(-c4cccc(F)c4)c(=O)n3C[C@H]1[C@H](CO)[C@H]2C(=O)NCCCN(C)C
-0.3	-8.1	1.2	-7.1	CCCNC(=O)N1C[C@H]2[C@@H](c3ccccc31)[C@@H](CO)N2Cc1cc(F)ccc1F
-2.1	-10.0	-0.5	-3.2	Cc1ccc(S(=O)(=O)Nc2ccc3c(c2)C(=O)N([C@@H](C)CO)C[C@@H](C)[C@H](CN(C)S(=O)(=O)c2ccccc2)OCCCC[C@@H](C)O3)cc1
-2.5	-0.5	0.8	1.4	COCC(=O)N1[C@H](CO)[C@H](c2ccc(C#CC(C)C)cc2)[C@@H]1CNC(C)=O
-2.7	10.0	1.9	7.6	CO[C@@H]1[C@H](O)CC[C@]2(O)CN(c3ccc(F)cc3)[C@](C)([C@H](O)CC=C(C)C)[C@@H]12
10.5	-1.3	-1.6	0.1	COc1ccc2c3c(n(C)c2c1)[C@@H](CO)N(C(=O)c1ccccc1)CC31CN(CC2CC2)C1
-7.2	-5.0	-2.1	0.9	CO[C@H]1CN(C)C(=O)c2cc(NC(=O)c3ccc(F)cc3)ccc2OC[C@H](C)N(C(=O)CN(C)C)C[C@H]1C
2.4	-61.0	-0.1	-20.1	O=C1CN(Cc2ccccc2)C[C@H]2[C@@H](c3ccc(-c4ccccc4F)cc3)[C@@H](CO)N12
7.6	-18.4	12.0	-9.6	C[C@H](CO)N1C[C@H](C)[C@H](CN(C)Cc2ccc(Cl)c(Cl)c2)Oc2ccc(NS(=O)(=O)c3cn(C)cn3)cc2CC1=O
-1.7	4.2	-1.0	1.0	C[C@@H](NC(=O)[C@@H]1[C@@H](CO)[C@@H]2Cn3c(cccc3=O)[C@H]1N2Cc1ccncc1)c1ccccc1
-5.1	-0.7	-1.1	4.3	COCC#Cc1ccc([C@H]2[C@H](CO)N3C(=O)CN(C(=O)C4CCC4)C[C@@H]23)cc1
2.1	0.5	-2.6	3.4	CO[C@@H]1CN(C)C(=O)c2cc(NS(C)(=O)=O)ccc2OC[C@@H](C)N(C(=O)CC2CC2)C[C@@H]1C
1.3	4.3&0.8	-0.5&-2.5	0.8&1.6	COCC(=O)N1C[C@@H](C)[C@H](OC)CN(C)C(=O)c2ccc(NC(=O)Nc3ccccc3)cc2OC[C@H]1C
-0.8	20.2	0.4	3.8	C/C=C/c1ccc([C@@H]2[C@H]3CN(C(=O)Cc4cccnc4)CC(=O)N3[C@H]2CO)cc1
-1.9	2.0	2.7	0.0	CC(C)CC#Cc1cnc2c(c1)C(=O)N([C@H](C)CO)C[C@H](C)[C@@H](CN(C)C(=O)c1ccccc1F)O2
5.4	-65.3	11.1	-28.3	COc1ccc(NC(=O)N2CC(=O)N3[C@H](C2)[C@@H](c2ccc(C4=CCCC4)cc2)[C@@H]3CO)cc1
-3.5	14.5	1.3	2.8	Cc1cccc(S(=O)(=O)N2CCCCN3[C@H](CO)[C@@H](c4ccc(C#CC5CC5)cc4)[C@@H]3C2)c1
2.7	-11.7	6.8	-3.6	C[C@H]1CN([C@@H](C)CO)C(=O)c2ccccc2-c2ccccc2CO[C@H]1CN(C)Cc1ccc(C(F)(F)F)cc1
-3.1	-1.4	-2.2	-2.5	O=C(NC1CCCCC1)N1CC2(C1)[C@H](c1ccccc1)[C@H](CO)N2CC1CCOCC1
1.2	-15.1	-2.1	-9.2	CN1c2ccc(Br)cc2[C@H]2[C@H](CCN2C(=O)C2CCCC2)[C@@H]1CO
-4.3	12.3	0.7	5.3	CC(=O)N(C)C[C@@H]1Oc2ncc(C#Cc3cccnc3)cc2C(=O)N([C@@H](C)CO)C[C@@H]1C
-1.8	-4.6	0.6	-4.8	CCC(=O)N1[C@H](CO)[C@@H]2c3ccccc3N(S(=O)(=O)c3ccc(F)cc3)C[C@@H]21
-1.2	-10.0	-0.4	0.5	CN1C(=O)c2cc(NS(=O)(=O)c3cccc(F)c3)ccc2OC[C@@H]2O[C@@H](CC(=O)N3CCc4ccccc4C3)CC[C@H]21
-6.4	-2.6	1.1	1.2	COc1cccc(NC(=O)N[C@@H]2C=C[C@@H](CC(=O)N3CCOCC3)O[C@@H]2CO)c1
-3.0	-1.6	0.5	-1.6	CCCC#Cc1ccc2c(c1)O[C@@H](CN(C)Cc1ccccc1)[C@H](C)CN([C@@H](C)CO)S2(=O)=O
-0.3	-4.0	-1.2	1.6	CO[C@@H]1CN(C)C(=O)c2ccc(NC(=O)c3ccc(F)cc3)cc2OC[C@@H](C)N(C)C[C@@H]1C
-0.8	-14.6	3.4	-2.7	Cc1ccc(S(=O)(=O)Nc2ccc3c(c2)C(=O)N([C@@H](C)CO)C[C@H](C)[C@@H](CN(C)C(=O)C2CCCCC2)OCCCC[C@@H](C)O3)cc1
-1.7	20.9	-4.1	2.6	COCC(=O)N1CC(=O)N2[C@@H](CO)[C@H](c3ccc(C#CC(C)C)cc3)[C@@H]2C1

Part of the list above, as labelled records.
> Cc1cccc(S(=O)(=O)N2CCCCN3[C@H](CO)[C@@H](c4ccc(C#CC5CC5)cc4)[C@@H]3C2)c1
  AF4-AF9 inh: -3.5	Ecoli rRNA inh OD600: 14.5	Ecoli rRNA inh RFP: 1.3	Ecoli rRNA inh: 2.8
> C[C@H]1CN([C@@H](C)CO)C(=O)c2ccccc2-c2ccccc2CO[C@H]1CN(C)Cc1ccc(C(F)(F)F)cc1
  AF4-AF9 inh: 2.7	Ecoli rRNA inh OD600: -11.7	Ecoli rRNA inh RFP: 6.8	Ecoli rRNA inh: -3.6
> O=C(NC1CCCCC1)N1CC2(C1)[C@H](c1ccccc1)[C@H](CO)N2CC1CCOCC1
  AF4-AF9 inh: -3.1	Ecoli rRNA inh OD600: -1.4	Ecoli rRNA inh RFP: -2.2	Ecoli rRNA inh: -2.5
> CN1c2ccc(Br)cc2[C@H]2[C@H](CCN2C(=O)C2CCCC2)[C@@H]1CO
  AF4-AF9 inh: 1.2	Ecoli rRNA inh OD600: -15.1	Ecoli rRNA inh RFP: -2.1	Ecoli rRNA inh: -9.2

Additional entries follow:
AF4-AF9 inh	Ecoli rRNA inh OD600	Ecoli rRNA inh RFP	Ecoli rRNA inh	molecule
2.3	5.2	1.4	6.0	Cc1ccc(-c2ccc([C@H]3[C@H]4CN(C(=O)Cc5ccccn5)CC(=O)N4[C@H]3CO)cc2)cc1
14.1	-9.5	-0.6	-2.4	COc1ccc2c3c(n(C)c2c1)[C@@H](CO)N(Cc1ccc2c(c1)OCO2)CC31CCN(C(=O)C2CC2)CC1
-2.5	15.9	1.1	-0.6	O=C(NCC(F)(F)F)[C@@H]1[C@@H](CO)[C@@H]2Cn3c(cccc3=O)[C@H]1N2CC1CCCC1
-1.1	-4.9	2.5	-0.4	O=C(Nc1ccccc1)N[C@H]1CC[C@H](CCn2cc(-c3ccccc3F)nn2)O[C@H]1CO
3.5	6.3	-3.3	-3.8	CC(C)C#Cc1ccc([C@H]2[C@@H](CO)N3C(=O)CN(C(=O)c4ccc5c(c4)OCO5)C[C@H]23)cc1
-2.0	-2.7	4.6	3.8	COc1ccccc1NC(=O)N1CC(=O)N2[C@H](C1)[C@@H](c1ccc(C#Cc3ccccc3)cc1)[C@@H]2CO
-1.5	8.9	1.1	2.5	C[C@H]1CN([C@@H](C)CO)C(=O)c2cc(-c3cncnc3)cnc2O[C@@H]1CN(C)C(=O)c1cccc(F)c1
0.9	-10.7	3.0	0.2	O=C(NC[C@H]1N[C@H](CO)[C@@H]1c1ccc(C2=CCCC2)cc1)C1CCC1
-1.1	-78.1	-15.4	-56.8	O=C(C1CCC1)N1CC(=O)N2[C@H](C1)[C@@H](c1ccc(C#Cc3cccc(F)c3)cc1)[C@@H]2CO
-2.3	14.1	-3.9	4.3	CC(C)NC(=O)N1CC2(C1)[C@H](c1ccccc1)[C@@H](CO)N2C(=O)C1CCCCC1
10.3	7.8	-2.8	1.3	O=C(C[C@@H]1CC[C@@H]2NC[C@H](O)COC[C@H]2O1)NCCN1CCCC1
-1.1	1.8	-0.9	-1.1	O=C(NC1CCCC1)[C@H]1N[C@H]2c3ccc(-c4cccc(F)c4)c(=O)n3C[C@H]2[C@@H]1CO
-0.4	-6.5	-2.7	1.9	CC(C)NC(=O)N(C)C[C@@H]1Oc2cc(-c3cccnc3)ccc2S(=O)(=O)N([C@@H](C)CO)C[C@H]1C
-1.4	6.5	0.1	1.5	CCNC(=O)[C@H]1[C@H](CO)[C@H]2Cn3c(cccc3=O)[C@@H]1N2C(=O)c1ccc(F)cc1
2.8	-2.4	0.5	0.6	CCN1[C@@H]2Cn3c(ccc(C4=CCCCC4)c3=O)[C@H]1[C@@H](C(=O)N1CCc3ccccc3C1)[C@@H]2CO
-1.5	-7.4	-1.7	-1.0	O=C(C[C@H]1C=C[C@@H](NC(=O)c2ccncc2)[C@H](CO)O1)NCc1ccncn1
-5.7	-7.4	-1.0	-0.1	COc1ccc2c3c(n(C)c2c1)[C@H](CO)N(CC1CC1)CC31CCN(C(=O)NC2CCCC2)CC1
-3.9	1.4	6.8	3.6	O=C(c1ccc(F)cc1)N1CC(=O)N2[C@H](C1)[C@@H](c1ccc(C#Cc3ccc(F)cc3)cc1)[C@@H]2CO
-14.4	-2.4	1.0	0.1	O=C(C[C@H]1CC[C@H](NC(=O)C2CCOCC2)[C@H](CO)O1)NCc1ccncc1
-1.3	-36.1*	-7.8*	-50.6*	O=C(Nc1cccc(Cl)c1)N1C[C@@H]2[C@H](c3ccccc31)[C@@H](CO)N2C(=O)c1cccnc1
-0.3	3.2	-0.3	2.3	CO[C@H]1CN(C)C(=O)c2cc(NC(=O)Nc3ccccc3)ccc2OC[C@@H](C)N(CC2CC2)C[C@H]1C
17.9	-4.8	-0.4	-0.9	COc1ccccc1-c1ccc2c(c1)[C@H]1[C@H](CCN1C(=O)C1CCC1)[C@@H](CO)N2
3.2	-1.2	3.3	0.5	Cc1noc(C)c1NC(=O)Nc1ccc2c(c1)C(=O)N([C@H](C)CO)C[C@@H](C)[C@H](CN(C)S(=O)(=O)c1ccccc1)OCCCC[C@@H](C)O2
-0.7	8.7	-2.8	4.7	Cc1noc(C)c1S(=O)(=O)Nc1ccc2c(c1)C(=O)N([C@@H](C)CO)C[C@H](C)[C@@H](CN(C)S(=O)(=O)c1cn(C)cn1)OCCCC[C@H](C)O2
-2.8	3.5	-0.4	0.7	CO[C@H]1CN(C)C(=O)c2ccc(NC(=O)Nc3ccccc3)cc2OC[C@H](C)NC[C@@H]1C
-3.0	20.2	0.1	6.4	Cc1cccc(-c2ccc(C3[C@@H]4CN(Cc5cccnc5)C[C@H]3N4)cc2)c1 (stereo partly specified)
4.3	-1.9	-0.1	-4.5	COCC(=O)Nc1ccc2c(c1)C(=O)N(C)C[C@H](OC)[C@@H](C)CN(CCc1ccccc1)[C@H](C)CO2
0.2	0.6	-0.9	0.0	C[C@H](CO)N1C[C@H](C)[C@H](CN(C)S(C)(=O)=O)OCCCC[C@H](C)Oc2ccc(NC(=O)Cc3ccccc3)cc2C1=O
-2.7	1.0	-5.3	2.8	CO[C@@H]1CN(C)C(=O)c2cc(NC(=O)c3ccc4c(c3)OCO4)ccc2OC[C@H](C)NC[C@H]1C
8.2	-46.8	28.1	-10.9	O=C(c1ccc2c(c1)OCO2)N1CC(=O)N2[C@H](CO)[C@@H](c3ccc(C#CC4CCCC4)cc3)[C@H]2C1
1.7	7.8	-0.2	5.3	C[C@H]1CN([C@@H](C)CO)C(=O)c2cc(NC(=O)CCCCCC(=O)Nc3ccccc3N)ccc2O[C@H]1CN(C)C
-1.5	3.6	0.4	-1.6	C[C@@H]1CN([C@H](C)CO)C(=O)c2cc(NS(=O)(=O)c3ccc(Cl)cc3)ccc2O[C@@H](C)CCCCO[C@H]1CN(C)C(=O)Nc1ccc(F)cc1
-0.7	-4.7	2.9	1.8	O=C(Nc1ccccc1F)N1CC(=O)N2[C@H](CO)[C@@H](c3ccc(-c4ccccc4)cc3)[C@H]2C1
-3.9	2.3	-3.9	0.0	CN(C)CC#Cc1ccc([C@H]2[C@@H](CO)N3C(=O)CN(C(=O)c4cccnc4)C[C@H]23)cc1
5.0	-34.3	4.4	-11.5	O=C(Nc1ccccc1)N1CC(=O)N2[C@H](CO)[C@@H](c3ccc(C#CC4CCCC4)cc3)[C@@H]2C1
-5.1	-4.4	-3.5	1.9	O=C(c1ccccn1)N1CC(=O)N2[C@H](CO)[C@H](c3ccc(C#CCc4ccccc4)cc3)[C@H]2C1
-2.2&-2.8	-26.1&-0.2	-1.4&2.1	-0.7&-2.8	N#Cc1cccc(-c2ccc(C3[C@@H]4CN(S(=O)(=O)c5ccccc5F)C[C@H]3N4)cc2)c1 (stereo partly specified)
-2.9	-76.0	-15.1	-56.4	Cc1ccccc1S(=O)(=O)N1[C@@H]2CNC[C@H]1[C@@H]2c1ccc(-c2ccc(C#N)cc2)cc1
